Screening data as filed in PubChem BioAssay.
MT1-MMP act inh: inhibitors of human MT1-MMP activation; AID 651647; GFP/RFP ratio change, % at 20 µM; actives 0.061% (n = 360,000); HT1080 RFP-PRO-GFP cells, GFP/RFP ratio fluorescence, overnight; percent of plate control window, DMSO zero;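 active means GFP/RFP ratio change of at least 30% with cell ATP level not reduced by more than half and red fluorescence within 50% of control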; further: strong numbers were not always called active
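Assay system – RFP-PRO-GFP reporter HT1080 cells · Compound dosing – single dose of 20 µM compound, 1% DMSO final · Incubation – overnight compound exposure at 37 °C · Measure – GFP/RFP fluorescence ratio · Benchmarks – DMSO wells and RFP-L50D-GFP cells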
Rce1 inhib: inhibitors of yeast Ras-converting enzyme | yeast membranes, quenched prenylated peptide cleavage fluorescence | Q03530 | AID 2563 | calls only | actives 0.27% (n = 290,000);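 active means fall in fluorescence gain of 50% or more versus controls, with final raw signal at or below 3038400; inconclusive means same 50% fall but final raw signal above 3038400; inactive means fall in fluorescence gain under 50%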;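 further: plate controls were neutral control wells for no effect and wells lacking membranes for full effect; tested at 10 µM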
Target sequence (Q03530 whole entry, looked up): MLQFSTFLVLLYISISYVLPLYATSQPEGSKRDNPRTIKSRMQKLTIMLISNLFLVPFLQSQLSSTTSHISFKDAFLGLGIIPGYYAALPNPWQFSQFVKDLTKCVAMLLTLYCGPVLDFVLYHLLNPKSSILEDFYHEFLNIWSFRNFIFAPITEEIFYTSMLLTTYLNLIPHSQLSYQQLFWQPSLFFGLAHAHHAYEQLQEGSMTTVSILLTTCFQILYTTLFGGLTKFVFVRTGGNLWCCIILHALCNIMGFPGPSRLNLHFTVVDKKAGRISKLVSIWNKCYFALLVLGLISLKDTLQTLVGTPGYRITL
UUG fidelity: alters start codon recognition fidelity in yeast | actives 0.13% (n = 350,000) | activity score, % at 18.7 µM | S. cerevisiae UUG-firefly luciferase reporter, luminescence/redox ratio;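 active means replicate mean at a twofold rise or more, about +100% in these data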;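 further: firefly luciferase made from a UUG start codon reports start codon fidelity; reporter light over untreated wells divided by growth signal over untreated wells; some hits fall short of that in this replicate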
eIF4H inh: inhibitors of RNA binding by human eIF4H. Q15056. eIF4H fluorescence polarization binding assay. inhibition, % at 35 µM. actives 0.94% (n = 290,000);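 active means 50% or more with normal probe brightness, or confirmed in later tests; inconclusive means above 50% with abnormal brightness, or retests that disagree; inactive means below 50% or failed in later tests; about a fifth of its hits are not listed in these tables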;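 further: calls also rest on retests at 20 µM and on dose response follow-up; 0% = protein and probe with vehicle and 100% = probe without protein; strong numbers were not always called active; many hits fall short of the cut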
PABP polyA inh: PABP-poly(A) binding inhibition. P11940. PABP-poly(A) RNA binding, fluorescence polarization. inhibition, % at 35 µM. actives 1% (n = 290,000);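 active means 50% or more with normal probe brightness, or confirmed in later tests; inconclusive means above 50% with abnormal brightness, or retests that disagree; inactive means below 50% or failed in later tests; about a fifth of its hits are not listed in these tables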;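 further: calls also rest on retests at 20 µM and on dose response follow-up; controls were probe without protein and protein plus probe with vehicle; some compounds called inactive have numbers as strong as hits; many hits fall short of the cut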
HIV Env fusion: HIV envelope-mediated fusion inhibition; inhibition, % at 12.3 µM; actives 1.1% (n = 360,000); HeLa-JRFL Env/CEM21 cell fusion, luciferase;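 active means mean replicate inhibition score of at least 50 and every replicate individually at or above 50; inconclusive means only one of the two criteria met; inactive means mean below 50 and not all replicates reaching 50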;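 further: 0% = plate neutral controls and 100% = maraviroc near 300 nM; one replicate is shown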
CSC inhib: blocks cancer stem cells; actives 1.1% (n = 300,000); inhibition, % at 7.5 µM; cancer stem cell-like cells viability, luminescence;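 active means mean at 75% or more and at least half the replicates too; inconclusive means mean and replicates disagree; tested in HMLE shEcad cells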;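 further: 0% = median of negative and 100% = median of positive control wells; the first replicate is given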
eIF4H inh retest: also measured in eIF4H inh; calls as there; inhibition, %; compound at 20 µM; confirmation average;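 mean of two retest wells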
PABP polyA inh retest: recorded beside PABP polyA inh, whose call it bears; inhibition, %; compound at 20 µM; confirmation repeats;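 mean of two retest wells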
MT1-MMP act inh RFP: also measured in MT1-MMP act inh; calls as there; RFP signal change, %; measured here: RFP expression control read;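 0 = vehicle wells; hits needed this value within 50% of zero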
The depositor's hits bear a star; i = inactive; ? = inconclusive; . = not tested or not shown; + = active, no number.

SMILES	MT1-MMP act inh	MT1-MMP act inh RFP	Rce1 inhib	UUG fidelity	eIF4H inh	PABP polyA inh	HIV Env fusion	CSC inhib	others
CCOC(=O)c1cc(-c2ccc3c(c2)OCO3)nc2onc(C)c12	-4	-2	i	-11	-8	-9	-11	4
C#CCOCCOCCOCCNc1nc(N2CCN(C(=O)[C@H](CCCCN)n3cc(CCCC)nn3)CC2)nc(N2CCN(C(=O)[C@H](CCCCN)n3cc(CCC(=O)O)nn3)CC2)n1	1	4	.	59	.	.	3	2
CCN(CC(=O)Nc1ccc(NC(C)=O)cc1)C(=O)c1ccc(C(=O)c2ccccc2)cc1	-2	-2	.	-6	.	.	-2	.
CNc1ccccc1C(=O)OCC(=O)N1CCN(c2ccc(OC)cc2)CC1	3	-2	i	0	0	-2	.	-5
CCOC(=O)N1CCN(CC(O)COCc2cc(OC)c(OC)c(OC)c2)CC1 (configuration not stated)	-1	-2	i	.	8	6	.	-4
Cc1cc(C)n(-c2nc(NCCCN(C)C)c3c4c(sc3n2)CCCC4)n1	.	.	i	-14	-4	4	17	2
Fc1cccc(Cl)c1/C=C/c1cnc2ccccc2n1	-5	1	i	.	-8	3	-29	11
O=C(CNC(=S)N(Cc1ccccc1)Cc1cccnc1)NC1CC1	-7	1	i	.	-6	3	25	14
CNC(=S)N(Cc1ccc2c(c1)OCO2)C1CC(=O)N(c2ccc(F)cc2)C1=O (configuration not stated)	1	0	i	.	-4	10	.	7
O=C(O)C(Cc1cccs1)c1cccs1 (configuration not stated)	2	1	.	11	.	.	1	.
O=C(Nc1ccccc1C(=O)NC1CCCC1)NC1CCCC1	6	2	i	-17	1	-6	-137	0
O=C(c1cc(-c2ccccc2)nc2ccccc12)N1CCOCC1	-2	3	i	-8	-10	-5	.	-11

As a working copy, part of the list above.
SMILES	MT1-MMP act inh	MT1-MMP act inh RFP	Rce1 inhib	UUG fidelity	eIF4H inh	PABP polyA inh	HIV Env fusion	CSC inhib	others
CCOC(=O)c1cc(-c2ccc3c(c2)OCO3)nc2onc(C)c12	-4	-2	i	-11	-8	-9	-11	4
C#CCOCCOCCOCCNc1nc(N2CCN(C(=O)[C@H](CCCCN)n3cc(CCCC)nn3)CC2)nc(N2CCN(C(=O)[C@H](CCCCN)n3cc(CCC(=O)O)nn3)CC2)n1	1	4	.	59	.	.	3	2

Remaining list, next part:
SMILES	MT1-MMP act inh	MT1-MMP act inh RFP	Rce1 inhib	UUG fidelity	eIF4H inh	PABP polyA inh	HIV Env fusion	CSC inhib	others
CCCN1CCN(CCCNC(=O)Cn2nc(-c3ccc(Cl)cc3)ccc2=O)CC1	2	2	i	.	-13	1	.	9
O=S(=O)(c1ccc(Cl)cc1)N1CCN(c2ccc(N3CCOCC3)nn2)CC1	1	-1	i	-17	-3	-1	-25	52
c1ccc(Cn2nnc(CNc3ccccc3)c2-c2c(CNc3ccccc3)nnn2Cc2ccccc2)cc1	13	-8	i	-16	-7	0	.	19
O=C(CSc1nc(O)cc(=O)[nH]1)C1CC1	5	4	i	-25	3	1	.	12
CCCCc1ccc(NC(=S)N2CCCC(C)C2)cc1 (configuration not stated)	4	4	i	-28	-3	-2	4	-3
CN(C)c1ccc(/C=N/NC(=O)c2nnn(-c3nonc3N)c2COc2ccc(F)cc2)cc1	4	-2	i	-14	-2	7	-5	-4
CN1CCc2c(sc3c2C(=O)NC(/C=C/c2ccco2)N3)C1 (configuration not stated)	-33	5	i	-9	.	.	.	3
Cc1nn(-c2ccccc2)c(OC(=O)c2cccs2)c1S(=O)(=O)c1ccc([N+](=O)[O-])cc1	5	0	i	-31	-2	27	-16	-9
CN(c1ccc(Cl)cc1)c1cc(=O)n(C)c2ccccc12	3	-2	i	39	8	4	.	.
O=C(Nc1ccc(N2CCN(C(=O)c3ccccc3)CC2)cc1)c1cc([N+](=O)[O-])ccc1N1CCOCC1	-4	-3	i	3	-17	6	4	6
CCCCNC(=O)c1ccccc1NC(=O)c1ccc2c(c1)OCO2	0	3	i	-12	3	3	1	-6
CCOC(=O)N1CCN(C(=O)/C=C/c2ccc3c(c2)OCO3)CC1	9	10	i	.	1	-5	12	-9
CC(=O)Nc1ccc(C(=O)OCCCOC(=O)c2ccc(NC(C)=O)cc2)cc1	-1	3	i	5	-6	12	-10	-12
COc1ccc(S(=O)(=O)NCC(c2ccc3c(c2)OCO3)N2CCN(C)CC2)cc1OC (configuration not stated)	0	4	i	-18	.	.	-10	-10
CC(C)(C)OC(=O)N/N=C/c1cn(-c2ccccc2)nc1-c1cccnc1	0	0	i	.	4	-7	-22	-9
NC(=O)C1CCCN(C(=O)c2ccc3c(c2)NC(=O)CS3)C1 (configuration not stated)	4	5	.	-17	.	.	.	-17
O=C(CSc1nc2ccccc2o1)NCc1ccc2c(c1)OCO2	-3	-6	i	3	-4	-9	-35	-9
O=C1/C(=C/c2cccs2)CCc2ccccc21	-3	-4	i	-7	8	-6	-29	7
C/C(=N/NC(=O)c1ccco1)c1cccnc1	-1	2	.	.	8	2	1	-25
CSc1nc2ccc(NC(=O)c3nn(C(C)C)c(=O)c4ccccc34)cc2s1	8	0	i	.	-5	6	-1	4
CCCCN(C)C(=O)CCC(=O)NNc1nc2ccccc2c2nc(C)nn12	2	5	i	.	5	-5	14	1
COCc1c(Br)c(C)[nH]c(=O)c1C#N	-1	3	+	-18	4	-6	.	1
Cc1ccn2cc(-c3cccc(NS(C)(=O)=O)c3)nc2c1	4	3	i	.	5	-2	-57	4
O=C(CNC(=O)C1CCCCC1)Nc1ccccc1Cl	5	4	i	.	3	10	2	2
Cc1ccc(NC(=O)CSC(C)C(=O)OCc2cc(=O)oc3cc(O)ccc23)cc1 (configuration not stated)	-2	1	.	-18	.	.	17	.
CC1(C(=O)NS(=O)(=O)c2ccc(C#N)cc2)CCN1C(=O)CC1CC1 (configuration not stated)	-2	4	.	-16	.	.	5	.
O=C(CSc1nnc(Cc2cccs2)n1-c1ccccc1)NC1CCCCC1	3	-7	i	-13	-1	14	.	-13
N/C(=N\OC(=O)c1ccc(Br)o1)c1cccnc1	-1	6	i	.	8	-3	-14	5
COc1cccc(SCc2noc(C(=O)NCCC(C)C)c2C(=O)NCCC(C)C)c1	-4	-3	i	-9	.	.	11	61
O=[N+]([O-])c1ccc2c(c1)nc(CO)n2Cc1ccccc1	2	-2	i	-17	-9	12	-8	.
CCCNc1c(NS(=O)(=O)c2ccc3c(c2)CCCC3)c(=O)oc2ccccc12	2	-3	i	7	-2	6	.	-16
CNC(=O)/C(C#N)=C/c1c(N2CCN(c3ccc(OC)cc3)CC2)nc2c(C)cccn2c1=O	3	0	i	-6	7	8	-1	-16
CCOC(=O)c1cnc(-n2nc(C)cc2C)nc1Oc1ccccc1F	-1	0	.	-23	-8	-8	-3	-9
CCCOc1ccc(C(=O)NCCC(=O)NCCCC(=O)OCC)cc1	-3	3	i	-7	4	7	.	1
Cc1cc(C(=O)COC(=O)CCC(=O)c2ccc3c(c2)OCCO3)c(C)n1Cc1ccco1	-2	1	.	0	36	21	.	2
Cc1ccc2oc(=O)c3cnn(CC(=O)NC4CCCCC4C)c3c2c1 (configuration not stated)	2	2	i	-11	-2	0	4	-1
CN1CCN(C(=O)/C(=C/c2ccccc2)c2ccccc2)CC1	0	0	i	-17	-11	-10	-8	0
COc1ccc(NC(=O)CSc2ncnc3[nH]ncc23)cc1	2	-3	i	-13	-14	-8	-2	-6
S=C(N/N=C/c1ccc(Br)cc1)N1CCCCC1	5	0	i	-35	23	-7	-82	-7
c1csc(-c2noc(COc3ccc4c(c3)CCCC4)n2)c1	-5	-1	i	-24	2	-6	-117	15
CCC(C)[C@H](N)c1nnc(SCC(=O)Nc2ccc(C)cc2C)o1 (some centres not stated)	-2	0	i	-8	7	6	-4	-9
Cc1ncoc1C(=O)N1CCCC(CCC(=O)NCc2ccc(F)c(F)c2)C1 (configuration not stated)	-6	0	i	-4	0	-12	-15	7
O=S(=O)(Nc1ccccc1)c1ccc2c(c1)CCO2	2	2	i	-4	-14	2	-21	2
Cc1ccc(CSc2nnc(-c3ccncc3)n2CC2CCCO2)cc1 (configuration not stated)	1	2	i	.	1	-8	-4	-1
COc1ccc(CN2CCC(N3CCC(C(=O)N4CCOCC4)CC3)CC2)c(F)c1	3	8	i	-13	0	1	11	1
Nc1cc(Cl)cc2c1-c1ccc(Cl)cc1C2O (configuration not stated)	-2	-8	.	-16	.	.	-47	.
O=C(Nc1ccc(F)cc1F)c1ccc2nc(N3CCOCC3)sc2c1	2	-11	i	-25	-7	1	-174	-8
Cc1cc(C)nc(SCC(=O)N2CCc3ccccc32)n1	2	-7	i	-11	-10	-6	-11	-5
CC(=O)c1cccc(NC(=O)c2cc(-c3ccc(C)cc3)on2)c1	-3	0	i	-26	2	3	-86	-6
Cc1ccc(/C=C2/Sc3ccc(C(=O)N4CCN(C)CC4)cc3NC2=O)cc1	3	-3	i	-4	88	42*	-29	64	eIF4H inh retest=31;PABP polyA inh retest=78*
Cc1ccccc1Cn1c(=O)n(CC2CCC(C(=O)NCCc3ccccc3)CC2)c(=O)c2ccccc21 (configuration not stated)	1	-1	i	-20	-6	-15	10	15
CC(c1ccc2c(c1)OCO2)n1c(=S)[nH]c2ccccc2c1=O (configuration not stated)	-6	-7	.	1	.	.	-31	.
O=C(COC(=O)Cc1ccccc1)NCc1ccc2c(c1)OCO2	-1	6	.	.	.	.	-3	-5
CCCNC(=O)c1cc(-c2ccc(OC)cc2)n(CCCOC)c1C	1	3	i	.	4	1	15	-8
Cc1cccc(NC(=S)NCCc2ccc(Cl)cc2)c1C	5	-5	i	-25	-7	-3	3	4
COc1cc2c(cc1OC)-c1nnc(-c3ccco3)n1C1(CCCC1)C2	0	-4	i	.	-10	?	.	-1
Cc1ccc(-n2nc3c(=O)n(CCCC(=O)NCc4ccco4)nc(C)c3c2C)cc1	6	4	i	-15	.	.	-1	5
Nc1nnc(SCC(=O)Nc2sc3c(c2C(=O)c2ccccc2)CCCC3)s1	-5	-18	i	.	-2	-6	.	-10
COc1cccc(C(=O)NCCCN2CCN(CCCNC(=O)c3cccc(OC)c3)CC2)c1	4	3	i	.	-3	-8	.	-15
C[C@H](CO)N1C[C@H](C)[C@H](CN(C)Cc2ccc(-c3ccccc3)cc2)Oc2ccc(NS(=O)(=O)c3ccccc3)cc2CC1=O	2	-9	.	4	.	.	.	97*
New compounds follow:
SMILES	MT1-MMP act inh	MT1-MMP act inh RFP	Rce1 inhib	UUG fidelity	eIF4H inh	PABP polyA inh	HIV Env fusion	CSC inhib	others
Cc1ccc(S(=O)(=O)N2CC3CCC2C3)cc1 (configuration not stated)	3	1	i	-1	-6	-16	.	-19
CC[C@@H]1Cc2cc(O)ccc2C2=C1c1ccc(O)cc1C[C@H]2CC	-15	-28	.	-5	.	.	.	102*
COc1ccc(CC(=O)NNC(=O)CSc2nc(C)c(C)c(=O)[nH]2)cc1	-4	0	i	.	7	-4	1	-11
COc1ccc(-n2c(O)cnc2Nc2nc(C)cc(C)n2)cc1OC	0	-1	i	-8	-3	-12	.	.
COCCn1cc(C(=O)c2cc(Br)ccc2O)cc(C#N)c1=O	-4	-4	i	.	-6	0	27	-8
Cc1cc(C(F)(F)Cl)n2ncc(-c3ccccn3)c2n1	2	2	i	-20	-13	-18	-15	-8
COc1cc(CNc2nnnn2C)cc(OC)c1OC	1	0	i	-6	46	0	18	-9
CCOC(=O)C1(CC2CCCCO2)CCN(S(=O)(=O)c2cccc(F)c2)CC1 (configuration not stated)	-5	-1	i	.	-11	6	9	-3

These rows are one share of the data. The share of hits here may be higher or lower than overall.
